# Mtb bLac sens = beta-lactam sensitization of Mtb H37Rv | M. tuberculosis H37Rv growth with meropenem, percent inhibition; hits of this screen are not shown here | inhibition, % at 25 µM | 330,000 tested, 0.27% active | AID 434955;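 active means about 74% or more and at least 40 points above the plate without the antibiotic, then above 30% in a dose series; inconclusive means first-round hits that could not be retested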;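 further: growth measured after seven days incubation then overnight dye step; 0% = bacteria only wells and 100% = bacteria with antibiotic; twin plates without the antibiotic show which effects depend on it; some results filed as inactive read as strong as hits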
# RecA intein inh = blocks M. tuberculosis RecA intein splicing; inhibition, %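 (about 9 µM by stock and volumes)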; 290,000 tested, 0.75% active; P9WHJ3; cell-free RecA intein splicing, fluorescence; in the data active means inhibition above about 30%; inconclusive means no clear call, values can overlap the other calls;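 further: 0% = vehicle wells and 100% = reference inhibitor control wells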
# Target sequence (P9WHJ3 whole entry, looked up): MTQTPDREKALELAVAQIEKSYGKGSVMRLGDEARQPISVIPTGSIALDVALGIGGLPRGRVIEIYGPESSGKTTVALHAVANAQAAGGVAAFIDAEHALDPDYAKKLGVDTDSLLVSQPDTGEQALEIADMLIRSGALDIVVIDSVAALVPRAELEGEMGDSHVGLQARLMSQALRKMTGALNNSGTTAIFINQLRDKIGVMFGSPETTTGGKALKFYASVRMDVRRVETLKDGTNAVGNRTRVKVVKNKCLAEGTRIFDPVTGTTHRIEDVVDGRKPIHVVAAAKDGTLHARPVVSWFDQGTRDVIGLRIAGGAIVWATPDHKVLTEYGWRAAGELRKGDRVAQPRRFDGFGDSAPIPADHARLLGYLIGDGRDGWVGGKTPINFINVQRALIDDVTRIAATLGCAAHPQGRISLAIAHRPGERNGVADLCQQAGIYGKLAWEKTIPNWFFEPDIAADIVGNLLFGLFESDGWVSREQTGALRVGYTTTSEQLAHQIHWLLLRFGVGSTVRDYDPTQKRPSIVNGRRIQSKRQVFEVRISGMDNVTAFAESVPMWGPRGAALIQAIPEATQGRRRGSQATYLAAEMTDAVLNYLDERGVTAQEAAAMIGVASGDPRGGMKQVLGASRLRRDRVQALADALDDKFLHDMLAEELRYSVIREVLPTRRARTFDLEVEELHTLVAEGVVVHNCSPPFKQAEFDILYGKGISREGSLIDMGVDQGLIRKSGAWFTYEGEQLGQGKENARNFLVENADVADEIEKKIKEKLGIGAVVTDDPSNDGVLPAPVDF
# YopH inh = inhibitors of Yersinia enterocolitica YopH tyrosine phosphatase. fluorescence Ex485/Em525. inhibition, %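 (about 10 µM by stock and volumes)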. 140,000 tested, 0.16% active. AID 898;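 active means inhibition of 50% or more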;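 further: controls were vehicle for no effect and minimum signal wells for full effect; inactives centre near -20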
# Mtb growth = M. tuberculosis H37Rv growth inhibitors, H37Rv strain (AID 1626) | M. tuberculosis H37Rv growth inhibition; higher % means a stronger effect | one-dose inhibition, % at 10 µM; IC50 in µM for titrated hits | 220,000 tested, 0.95% active;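 active means confirmed in a dose series; inconclusive means inhibition above 80% but not taken into the dose series; inactive means below 80% or under 30% at every dose of the series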;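 further: bacteria incubated seven days before Alamar blue readout; 0% = bacteria only wells and 100% = bacteria with antibiotic wells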
# Arbovirus anti = blocks arbovirus infection; 200,000 tested, 0.37% active; inhibition, % at 10 µM; AID 1251; arbovirus infection cell-based antiviral screen;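 active means inhibition from about 30%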;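 further: bluetongue infection of BSR cells; cell survival read as ATP light after 72 h; 0% = infected wells without compound and 100% = uninfected wells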
# Arbovirus anti repeat = second read-out of Arbovirus anti, no call of its own (marks repeat the call); inhibition, %; measured here: 10K subset replicate screen; many hits read low in the repeat;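 first of two repeat runs on a subset; 0% = infected and 100% = uninfected wells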
# * hit, by the source's call; ? = inconclusive; . = not tested or not shown.
SMILES,Mtb bLac sens,RecA intein inh,YopH inh,Mtb growth,Arbovirus anti,others
CCOC(=O)c1c(-c2ccccc2)cn2ccccc12,16,2.1,-3,0%,5,
COc1ccc(CCNC(=O)c2cc(-c3ccncc3)nc3ccc(S(=O)(=O)N4CCOCC4)cc23)cc1OC,6,1.5,.,.,.,
O=C(COc1ccc2oc(-c3ccccc3)cc(=O)c2c1)Nc1ccccc1,-1,0.8,-23,7%,-10,
O=C(Cn1cnc2c(cnn2-c2ccccc2)c1=O)N1CCOCC1,1,.,-35,9%,2,Arbovirus anti repeat=-1
CCOc1ccc(N(CC(=O)N2CCCCCC2)S(=O)(=O)c2ccc(F)cc2)cc1,-3,3.1,.,.,.,
COC(=O)CCC(=O)Nc1ccc2oc3c(c2c1)CCCC3,-6,-0.6,.,.,.,
CCOC(=O)c1c(NC(=O)CSc2nnc(C)c(=O)[nH]2)sc(C)c1C,2,0.5,.,-3%,4,
CC1CCN(c2nc(-c3ccccc3)c(C#N)c(=O)[nH]2)CC1,1,2.1,-37,-4%,16,Arbovirus anti repeat=9
CCN(c1ccccc1)S(=O)(=O)c1ccc(C(=O)N2CCCC(C(F)(F)F)C2)cc1 (stereo not given),-4,3.5,.,.,.,
CN(C)S(=O)(=O)c1ccc(NC(=O)CCCNC(=O)c2ccc(Cl)cc2)cc1,0,-0.8,.,.,.,
Cc1ccc(C)n1-c1nccc(-c2cccs2)n1,7,-117,-23,.,-5,
O=S(=O)(c1ccc(Cl)cc1)N1CCC(n2cnc3cc(C(F)(F)F)ccc32)CC1,100,9.5,8,?,.,

# Overlap with the part before: 2 entries; new compounds follow.
SMILES,Mtb bLac sens,RecA intein inh,YopH inh,Mtb growth,Arbovirus anti,others
Cc1ccc(C)n1-c1nccc(-c2cccs2)n1,7,-117,-23,.,-5,
O=S(=O)(c1ccc(Cl)cc1)N1CCC(n2cnc3cc(C(F)(F)F)ccc32)CC1,100,9.5,8,?,.,
COc1ccc(C(=O)NNC(=O)CN(C)S(=O)(=O)c2ccc(Cl)cc2)c(OC)c1OC,-19,5.4,.,.,.,
COc1ccc(-c2nc(NC(=O)Cn3cnnn3)sc2C)cc1,-3,5.4,.,6%,13,
COc1cc(/C=C2/N=C(c3ccccc3F)OC2=O)cc(Cl)c1OS(C)(=O)=O,49,-2.0,-9,3%,3,
COc1ccc(N=c2ssnc2Cl)cc1,97,-0.5,12,32%,0,
COc1ccc(-n2ccnc2SCC(=O)Nc2ccccc2)cc1,-2,2.4,-42,-4%,14,
Cc1c(CNC(=O)C2CCC(=O)N(CCc3ccccc3)C2)cnn1C (stereo not given),?,-5.0,.,.,.,
Cc1ccc2cc(CN(CC3CCCO3)S(=O)(=O)c3cccc4nsnc34)c(=O)[nH]c2c1 (stereo not given),-7,3.4,-30,9%,-17,
O=[N+]([O-])c1cc([N+](=O)[O-])c2cc(-c3cccnc3)[nH]c2c1,18,-2.6,.,.,.,
COC(=O)c1cc(O)c(OCc2ccccc2)c(O)c1,5,-4.5,20,8%,1,
C[C@H]1CCC[C@@]2(O[C@H](CCO)C[C@H](O)[C@H]2O)O1,-11,-0.8,.,-2%,.,
O=C(COC(=O)CN1C(=O)C2CC=CCC2C1=O)Nc1cc(C(F)(F)F)ccc1N1CCOCC1 (stereo not given),-8,0.7,5,1%,3,
COc1ccc(CNS(=O)(=O)c2ccc3c(c2)CC(C)N3C(=O)C2CC2)cc1 (stereo not given),0,1.3,.,.,.,
CCSc1nnc(NC(=O)c2ccc(C)o2)s1,9,2.3,-63,-3%,-3,
COc1ccc(Nc2c(-c3ccc(C)cc3)nc3cnccn23)cc1,3,3.8,.,5%,9,
CS(=O)(=O)c1ccc2nc(NC(=O)Cc3ccccc3)sc2c1,4,-5.9,.,.,1,Arbovirus anti repeat=2
Cc1ccc(C)c(NC(=S)N2CCC(N(C)CC3CCCO3)CC2)c1 (stereo not given),-5,0.0,14,-5%,1,
O=C1NCCN(Cc2c(F)cccc2Cl)C1CC(=O)N1CCCCO1 (stereo not given),1,-2.7,.,2%,3,
O=C(CN1CCN(Cc2ccc3c(c2)OCO3)CC1)Nc1ccc(F)cc1,-2,1.3,-11,3%,-14,
O=C1c2cccnc2C(=O)N1Cc1ccc(F)cc1S(=O)(=O)NCc1ccco1,16,0.0,.,.,.,
COc1cc(OC)nc(-n2ncc(OC)c(Br)c2=O)n1,8,0.0,-15,0%,1,
CC1=NN(C(=O)c2ccc(Cn3nc(C)c([N+](=O)[O-])c3C)o2)C(O)(C(F)(F)F)C1 (stereo not given),0,-1.8,-29,1%,20,
COc1ccc(-n2nnnc2-c2ccccc2)cc1,4,2.1,-15,1%,-1,
CCc1ccccc1NC(=S)N1CCN(c2ccccn2)CC1,4,2.3,-13,3%,7,
CCOc1ncccc1C(=O)N=c1sccn1C,-5,-0.6,.,.,.,
CCN=c1scc(-c2cccs2)n1/N=C/c1cc(OC)ccc1O,4,.,-15,9%,3,
O=C1CCCCC1Oc1ccc2ccc(=O)oc2c1 (stereo not given),2,0.6,.,.,.,
CC(=O)CCC(=O)N1CCCC(N2CCN(c3cccc(Cl)c3)CC2)C1 (stereo not given),-1,-0.8,.,.,.,
Cc1ccc(OCCN2CCNCC2)c([N+](=O)[O-])c1,3,-3.7,-32,5%,-7,
CCCc1nnc(NC(=O)c2cccnc2)s1,2,-2.1,.,-5%,.,
Nc1ccc(N2CCCCC2)c(S(=O)(=O)Nc2ccccc2Cl)c1,0,3.3,.,8%,.,
COc1ccc(-c2cn[nH]c2-c2ccc(OCc3ccccc3)cc2O)cc1OC,5,6.7,.,4%,.,
S=c1[nH]nc(C2CCCCC2)n1/N=C/c1ccccc1Br,-8,7.7,.,.,.,
CNC(=O)CSc1nnc(-c2cccs2)o1,-4,2.9,-13,-4%,12,
Cc1cc(-c2onc(C)c2C(=O)N/N=C/c2ccccc2)no1,-7,-1.8,.,-5%,.,
COc1cccc(N2C(=O)C3ON(c4ccccc4)C(c4cccs4)C3C2=O)c1 (stereo not given),-5,2.3,-60,3%,-3,Arbovirus anti repeat=-1
CC(=O)c1ccc(OCC(O)CN2CCN(S(=O)(=O)c3cccc(Br)c3)CC2)cc1 (stereo not given),3,3.1,.,.,.,
CC(C)(C)c1ccc(CNc2ccc([N+](=O)[O-])cn2)cc1,-1,1.7,-28,14%,21,
Cc1ccc(/C=C2\CCCC3=C2NC(=S)NC3c2ccc(C)cc2)cc1 (stereo not given),-9,12,1,7%,13,
CC(C)N1CCc2c(sc(N)c2C#N)C1,-6,-52,.,-3%,9,
Cc1[nH]ccc(=O)c1OC1OC(CO)C(O)C(O)C1O (stereo not given),-1,-1.1,-21,0%,3,
O=C(NCc1cccnc1)Nc1cc(Cl)cc(Cl)c1,-16,-0.2,.,.,.,
COc1cc2c(C(=O)N3CCN(C)CC3)c(C)n(C)c2cc1Br,6,-4.4,-26,-7%,4,
COC(=O)c1ccccc1NC(=O)C1CCN(C(=O)c2cc(OC)cc(OC)c2)CC1,-2,2.5,-24,-8%,15,
O=c1[nH]c(=O)n(Cc2ccco2)c(O)c1C=NCCCn1ccnc1,-8,-1.5,8,.,4,
Cn1cc(C(=O)NCc2ccccc2)c2ccccc21,-9,-1.4,.,1%,-4,
Cc1c(NC(=O)CCCCCN2C(=O)c3ccccc3C2=O)c(=O)n(-c2ccccc2)n1C,-4,-4.6,-6,1%,1,
O=C(CSc1nnc2c(n1)[nH]c1ccccc12)Nc1ccc(N2CCOCC2)cc1,-4,1.5,.,-1%,.,
CC(C(=O)NCc1ccco1)n1nc(-c2ccccc2)c2cc(Cl)ccc21 (stereo not given),-1,.,-51,-11%,-26,
CCNC(=S)NNC(=O)c1cccc(Br)c1,-1,1.4,-33,-2%,4,
CC(C)c1cc(C(=O)Nc2cccnc2)no1,-3,4.0,-20,7%,5,
OCCCNc1nc(-c2ccc(Cl)cc2)nc2ccccc12,15,3.8,.,.,.,
COc1ccc(S(=O)(=O)N(C)C2CCN(C)CC2)cc1,-3,6.5,-1,-1%,-7,Arbovirus anti repeat=-8
CN(Cc1cccs1)C(=O)COC(=O)CNC(N)=O,-3,1.3,.,-10%,18,
COc1ccc2c(c1)CC(C1(O)C(=O)N(C)c3ccccc31)C2=O (stereo not given),-4,.,-50,-10%,-13,Arbovirus anti repeat=-5
CCOC(=O)c1[nH]c2ccc(Cl)cc2c1NC(=O)/C=C/c1ccc2c(c1)OCO2,-5,-8.0,-29,-4%,-11,
C/C=C1\COC(C(=O)NCc2ccccc2)(C(F)(F)F)C=C1C=C(C)C (stereo not given),-3,10,.,-2%,.,
N#Cc1ccccc1NC(=O)CN1C(=O)NC2(CCCC2)C1=O,3,1.5,.,.,.,
Cc1nn(-c2ccccc2)c(Cl)c1/C=N/NC(N)=O,-4,3.1,.,-2%,.,
Cc1cc2cc3c(=O)[nH]c(=O)[nH]c3nc2cc1C,1,-4.5,.,4%,.,
Cc1ccc(C(=O)N[C@@H](C)CN2C3=NC[C@H](C(C)C)N3C[C@H]2Cc2ccc(O)cc2)cc1Br,7,3.2,.,5%,-6,
# Further results follow:
SMILES,Mtb bLac sens,RecA intein inh,YopH inh,Mtb growth,Arbovirus anti,others
CCN(CC)c1ccc(/C=C/C(=O)C2C(=O)C=C(C)OC2=O)cc1 (stereo not given),13,-6.6,.,16%,1,
CCOc1ccc(C(C)=O)cc1N1C(=O)C2C(C1=O)C1C=CC2C12CC2 (stereo not given),4,-1.7,-5,-8%,9,
O=C1c2ccccc2C(=O)N1CCCCN(C(=O)c1cc([N+](=O)[O-])cc([N+](=O)[O-])c1)c1ccc(Cl)cc1,100,11,-14,1.2µM*,4,
COc1ccc(CCNC(=O)Cc2ccc(OC)c(OC)c2)cc1OC,-1,0.1,.,-4%,3,
CCN1C(=O)C(C(=O)c2ccccc2)SC1=S (stereo not given),4,1.5,.,-5%,-1,
CCCCC(=O)N1CC2(C)CN(C(=O)CCCC)CC(C)(C1)C2=O,-17,1.3,-33,-1%,-3,
Cc1cc(C)cc(NS(=O)(=O)c2ccc(F)cc2)c1,0,4.9,.,0%,.,
COc1ccccc1NC(=O)CSc1nnnn1-c1ccc(F)cc1,-5,-1.0,.,.,.,
Cc1ccc(N=c2sc(C)c(C)n2C)cc1,-6,-1.2,-23,3%,-2,
CC(C)Oc1cccc(C(=O)Nc2ccccc2N2CCOCC2)c1,31,.,-6,12%,8,
COc1ccc(-n2nnnc2SCC(=O)c2ccc(OC)c(OC)c2)cc1,5,1.7,-28,-8%,15,
CC1(C)Cc2c(sc(NC(=O)c3ccc(S(=O)(=O)N4CCCCCC4)cc3)c2C#N)C(C)(C)N1,?,-0.4,.,.,.,
CC1=CC2(O)OCCN(CCO)C2=CC1=O (stereo not given),-1,66*,3,-2%,1,
CCOCc1nnc(NC(=O)CCC2CCCCC2)s1,1,-2.3,.,.,.,
Cc1ccc(C)c(NC(=S)NC(C)C(c2cccs2)N2CCOCC2)c1 (stereo not given),-4,2.9,-30,3%,4,
O=C(NC1CS(=O)(=O)CC1NCc1ccco1)c1ccccc1 (stereo not given),-2,-1.6,-46,2%,12,
Cc1[nH]c(C)c(S(=O)(=O)NCc2ccc(F)cc2)c1C(=O)N1CCCC1,?,-1.8,.,.,.,
CCCCn1c(N)c(N(CCOC)C(=O)c2cc(-c3ccc(C)cc3)nc3ccccc23)c(=O)[nH]c1=O,-18,2.6,.,.,.,
O=C(Nc1nccs1)c1ccc(S(=O)(=O)c2ccccc2)cc1,-9,-1.7,9,-6%,-2,
COc1cccc(-n2nc(C(N)=O)c(O)cc2=O)c1,-3,-0.7,.,1%,-1,
COc1ccc(OC)c(C(=O)CSc2nc3ncccc3[nH]2)c1,1,-2.4,-8,-3%,-8,
COc1ccc(NC(=O)Nc2ccc3nsnc3c2)cc1,8,4.2,-3,0%,11,
CC1CCCCN1Cc1cccnc1 (stereo not given),1,.,.,3%,20,
O=c1c2c(nc3cc(-c4cccc(Cl)c4)[nH]n13)CCCC2,5,-1.7,.,1%,8,
CC(=O)Nc1ccc(NC(=O)C2CCCN(c3ncccn3)C2)cc1 (stereo not given),-3,3.2,-22,-9%,-5,

# Five entries already listed, ordered by molar mass, ascending:
SMILES,Mtb bLac sens,RecA intein inh,YopH inh,Mtb growth,Arbovirus anti,others
CC(C)c1cc(C(=O)Nc2cccnc2)no1,-3,4.0,-20,7%,5,
COc1ccc(-n2nnnc2-c2ccccc2)cc1,4,2.1,-15,1%,-1,
Cc1ccc(/C=C2\CCCC3=C2NC(=S)NC3c2ccc(C)cc2)cc1 (stereo not given),-9,12,1,7%,13,
Cc1ccc(C)c(NC(=S)N2CCC(N(C)CC3CCCO3)CC2)c1 (stereo not given),-5,0.0,14,-5%,1,
C/C=C1\COC(C(=O)NCc2ccccc2)(C(F)(F)F)C=C1C=C(C)C (stereo not given),-3,10,.,-2%,.,

# High-throughput results from PubChem BioAssay.

# The list is partial; rates above refer to the full screens.
